# RanGTP-Imp inh: inhibitors of RanGTP-importin-beta interaction, primary screen, biochemical, FRET, CFP-Ran, YFP-importin-beta, homogeneous. inhibition, % (no concentration beside the values). cell-free CFP-Ran/YFP-importin-beta FRET ratio. hit rate 1.1% among 300,000. Ran GTPase (GTP-bound) - importin-beta complex. AID 2216, 2009;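 active = most replicates above 15%; inconclusive = exactly half above 15%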;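 also: 0% = DMSO wells and 100% = Ran loaded with GDP instead of GTP; wells of about 40 µL received 100 nL stock; the first replicate is given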
# Vif A3G: inhibitors of Vif binding to APOBEC3G peptide, primary screen, biochemical, TR-FRET, GST-Vif 1-94, biotin-A3G peptide, dose response retest (AID 1117319) | TR-FRET GST-Vif / biotin-A3G peptide binding; higher % means a stronger effect; test concentration not given here; strong numbers were not always called active | one-dose inhibition, %; IC50 in µM for titrated hits | hit rate 0.57% among 260,000;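 active = above the screen mean plus three standard deviations and confirmed in dose response; inconclusive = results disagree or hit not tested in dose response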;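 also: Vif residues 1-94 fused to GST binding biotinylated APOBEC3G peptide 110-148; 0% = full assay without inhibitor and 100% = GST in place of GST-Vif; retest series ran down from 100 µM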
# Beta apoptosis: inhibitors of cytokine-induced beta cell apoptosis, primary screen, luminescence; hit rate 0.8% among 300,000; protection from apoptosis, % (concentration not given with the values); INS-1E cytokine-induced death, ATP luminescence, 48 h; percent of positive-control rescue, neutral wells zero; AID 435005, 2010;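 active = all replicates at 75% or more, or half of them and the mean; inconclusive = half reach 75% but not the mean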;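 also: 0% = cytokine-treated negative control wells and 100% = positive control rescue; higher means more ATP so stronger rescue from cytokine killing; wells of about 40 µL received 100 nL stock; the first replicate is given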
# T cruzi inh: inhibitors of intracellular T. cruzi growth, primary screen, luminescence, NIH3T3 host cells | T. cruzi beta-gal in NIH3T3, 90 h | inhibition, % (test concentration not listed) | hit rate 1.4% among 300,000 | AID 1885, 2009;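 active = mean inhibition across valid replicates above about 55%, limit read from the data; inconclusive = mean below that limit but half or more replicates reach it; inactive = mean below it, under half of replicates reach it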;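 also: signal also drops with host cell toxicity which is not excluded here; 0% = plate median of DMSO wells and 100% = zero luminescence signal; higher percent means less beta-gal luminescence so fewer parasites; stock transfer was 50 nL into about 50 µL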
# Bfl-1 A1 inh: caspase 3/7 activation in MEF A1-2A-BIM cells, primary screen, A1 inhibitor project, cell-based, luminescence, HTS. Caspase-Glo 3/7 luminescence, 3 h; percent of clofoctol response, vehicle zero. caspase activation, % (no concentration beside the values). hit rate 0.066% among 330,000. AID 2462, 2010;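 active = over half of replicate activation scores above 10%, or exactly half above 10 with the replicate mean above 10; inconclusive = replicate mean below 10 yet half the replicates above 10; inactive = over half of replicates below 10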;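 also: wells of about 30 µL received 50 nL stock; many hits fall short of the cut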
# MLL AF4-AF9 inh: inhibitors of AF4 peptide binding to AF9, primary screen, biochemical, AlphaScreen, biotin-AF4 peptide, FLAG-AF9, single point. inhibition, % at 10 µM. hit rate 0.47% among 350,000. AID 651704, 2012;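 active = every replicate reaching a set inhibition limit, whatever the replicate mean, cut at about 25% in these data; inconclusive = mean inhibition reaches that limit but some replicates miss it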;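 also: 0% = plate neutral control median and 100% = total signal loss; the record names both 10 and 1 µM as test concentration; the first replicate is given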
# Target sequence (P42568 whole entry, looked up): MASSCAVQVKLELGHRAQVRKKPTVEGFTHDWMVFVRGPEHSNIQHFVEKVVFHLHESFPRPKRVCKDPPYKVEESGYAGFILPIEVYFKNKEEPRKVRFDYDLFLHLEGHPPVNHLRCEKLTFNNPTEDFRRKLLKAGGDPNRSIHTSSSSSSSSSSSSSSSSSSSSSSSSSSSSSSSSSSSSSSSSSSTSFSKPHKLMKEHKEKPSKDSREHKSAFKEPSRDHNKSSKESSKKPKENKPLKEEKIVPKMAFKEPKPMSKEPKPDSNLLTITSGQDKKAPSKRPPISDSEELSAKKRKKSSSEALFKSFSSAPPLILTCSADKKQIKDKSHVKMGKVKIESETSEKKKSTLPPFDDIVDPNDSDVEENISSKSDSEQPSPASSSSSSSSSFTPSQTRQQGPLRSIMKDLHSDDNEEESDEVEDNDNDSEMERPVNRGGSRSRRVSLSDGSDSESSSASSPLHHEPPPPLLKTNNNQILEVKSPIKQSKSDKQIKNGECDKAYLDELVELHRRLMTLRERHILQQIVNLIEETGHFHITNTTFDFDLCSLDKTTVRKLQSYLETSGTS
# Ecoli rRNA inh: reduced GFP signal of wild-type E. coli, primary screen, bacterial rRNA inhibitor project, GFP/RFP fluorescence, OD600, single point. E. coli WT GFP vs humanized-ribosome RFP mutants, 24 h; hits give low values; DMSO median 0, no signal -100. GFP signal change (wild-type ribosome), % (concentration not given with the values). hit rate 1.6% among 350,000;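 active = significant combined selectivity score with lowered wild-type GFP, culture density cut under 30%, mutant RFP and density less affected; inactive = any of these conditions unmet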; also: one replicate is shown; some compounds called inactive have numbers as strong as hits
# Calb FLC: C. albicans growth inhibition with fluconazole, primary screen, CaCi-2 strain, Alamar Blue fluorescence; C. albicans CaCi-2 (fluconazole-resistant clinical isolate) + fluconazole, 48 h; growth inhibition, % (no concentration beside the values); hit rate 0.57% among 300,000; AID 1979, 2009;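 active = most replicates above 75%; inconclusive = exactly half above 75%; inactive = most below 75%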;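 also: all wells also contain fluconazole at 8 µg/ml as a sub-toxic cotreatment; 0% = median of DMSO wells and 100% = median of geldanamycin control wells; wells of about 8 µL received 7.5 nL stock; the first replicate is given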
# Ecoli rRNA inh OD600: recorded beside Ecoli rRNA inh, whose call it bears; OD600 change, %; measured here: OD600 growth;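 optical density of the mix in the first replicate; 0 = DMSO median and -100 = no signal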
# Ecoli rRNA inh RFP: also measured in Ecoli rRNA inh; calls as there; RFP signal change, %; measured here: RFP humanized mutant strains;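 first replicate; 0 = DMSO median and -100 = no signal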
# * marks the source's active call; other numbers are inactive results; ? = inconclusive; / = not tested or not shown. The list is partial. The share of hits here may be higher or lower than overall.
SMILES,RanGTP-Imp inh,Vif A3G,Beta apoptosis,T cruzi inh,Bfl-1 A1 inh,MLL AF4-AF9 inh,Ecoli rRNA inh,Ecoli rRNA inh OD600,Ecoli rRNA inh RFP,Calb FLC
COC(=O)c1ccc(NC(=S)NC2c3ccccc3CC2O)cc1 (stereo unspecified),?,/,/,-7,0.7,2.5,-15,-33,-1.1,-13
Cc1ccc(NC(=O)CNc2ccc(OC(C)C)cc2)cc1,-3.1,32%,/,12,?,/,/,/,/,3
CCN(CC)CCN(Cc1cc2cc3c(cc2[nH]c1=O)OCCO3)C(=S)NCC1CCCO1 (stereo unspecified),-3.8,5%,0,-8,1.1,-0.9,12,18,6.2,-3
OCCC1CN(C2CCSCC2)CCN1C1CCCC1 (stereo unspecified),-0.1,/,-3,7,1.3,0.4,29,18,1.5,-14
CC(C)c1ccc(NC(=O)COC(=O)CSc2nnc(N)s2)cc1,-0.3,/,-5,1,0.6,/,/,/,/,0
CN(Cc1cccnc1)C(=O)c1ccc2nc(Cc3ccccc3F)oc2c1,-1.3,/,0,-4,0.4,4.2,-2,-2,0.0,-14
COc1cc(C)c(NC(=O)c2cc(C3CC3)nc3c2cnn3C(C)C)cc1OC,/,-9%,-4,/,-0.2,5.2,/,/,/,/
CCOC(=O)CN(C(=O)COc1ccc2c(C)cc(=O)oc2c1)c1ccc(OCC)cc1,0.4,-1%,6,17,-0.4,-2.3,13,12,-0.3,-2
CCCSC1=C(C#N)C(c2ccccc2C)CC(=O)N1 (stereo unspecified),-3.1,5%,1,2,-0.1,/,/,/,/,-3
COc1cc(OC)nc(Oc2ccccc2C(=O)Oc2ccc(F)cc2Cl)n1,-0.8,16%,/,4,1.1,-1.7,-19,-19,0.3,20
COc1ccc(N2C(=O)c3ccccc3NC2c2ccccc2O)cc1 (stereo unspecified),-2.2,-3%,6,-2,-3.7,-1.2,1,13,1.8,10
O=[N+]([O-])c1ccc2c(c1)OCCOCCOCCOCCOCCOCCO2,-1.2,10%,-8,3,1.1,-4.5,3,5,8.2,-12
O=C(CN1C(=O)C2C3CCC(C3)C2C1=O)Oc1ccc2ccccc2c1 (stereo unspecified),0.7,21%,-2,-11,-0.3,-6.9,24,-16,1.2,11
Cc1ccc(S(=O)(=O)CCC(=O)Nc2cccc(C)c2)cc1,2.8,-1%,1,4,0.3,/,/,/,/,-3
O=S(=O)(c1ccc(F)cc1)N1CC=C(c2ccccc2)CC1,2.2,5%,-3,1,0.3,12,8,6,2.0,5

# Compounds shown so far with fluorine:
SMILES,RanGTP-Imp inh,Vif A3G,Beta apoptosis,T cruzi inh,Bfl-1 A1 inh,MLL AF4-AF9 inh,Ecoli rRNA inh,Ecoli rRNA inh OD600,Ecoli rRNA inh RFP,Calb FLC
CN(Cc1cccnc1)C(=O)c1ccc2nc(Cc3ccccc3F)oc2c1,-1.3,/,0,-4,0.4,4.2,-2,-2,0.0,-14
COc1cc(OC)nc(Oc2ccccc2C(=O)Oc2ccc(F)cc2Cl)n1,-0.8,16%,/,4,1.1,-1.7,-19,-19,0.3,20
O=S(=O)(c1ccc(F)cc1)N1CC=C(c2ccccc2)CC1,2.2,5%,-3,1,0.3,12,8,6,2.0,5

# Next part
SMILES,RanGTP-Imp inh,Vif A3G,Beta apoptosis,T cruzi inh,Bfl-1 A1 inh,MLL AF4-AF9 inh,Ecoli rRNA inh,Ecoli rRNA inh OD600,Ecoli rRNA inh RFP,Calb FLC
Cn1cc(CN2CCN(c3ncccn3)CC2)c(-c2cccc(Cl)c2)n1,-1.5,-5%,-4,14,-1.4,-8.6,-3,-9,1.5,46
Cc1cccc(N2CCN(C(=O)/C=C/c3cccs3)CC2)c1C,2.9,-2%,-16,28,1.2,/,/,/,/,18
CC(C)(C)n1nc2c(c1NC(=O)Cc1cccs1)CSC2,5.0,5%,-10,0,0.1,/,/,/,/,7
COc1ccc(OC)c(CCNC(=O)CCCc2nnc3n(C)c(=O)c4sccc4n23)c1,-0.5,/,6,0,0.4,0.7,0,6,-1.3,2
c1ccc2[nH]c(NN=C3CCCCCC3)nc2c1,4.9,14%,15,-6,-4.5,5.8,-3,5,-3.2,-12
CCC(C)NC(=O)CSc1nnc(-c2c[nH]c3ccccc23)o1 (stereo unspecified),0.7,4%,-2,8,0.3,-2.8,-20,-4,4.3,6
COc1ccc(NC(=O)CSc2nc(SC)ns2)cc1,-1.4,/,-2,18,-0.3,0.0,-3,-12,-2.5,-30
CCC(=O)N1CCN=C1SCc1cccc(C(F)(F)F)c1,-1.4,3%,/,7,0.5,-4.3,4,1,0.9,-2
COc1ccc(NC(=O)c2ccccc2C)c(OC)c1,-3.1,-5%,-6,5,0.4,/,7,8,2.5,39
Cc1cccc(-c2noc(CCCC(=O)N3CCOCC3)n2)c1,/,8%,-4,-2,-0.3,/,/,/,/,-15
CC(C)OC(=O)CSc1ncnc2c1cnn2Cc1ccccc1,1.3,10%,-7,-9,-0.1,/,/,/,/,22
COc1cccc(C2CC(=O)Nc3n[nH]c(-c4ccccc4)c32)c1OC (stereo unspecified),-1.1,-5%,-2,5,0.1,/,-12,-13,0.9,-11
CCOP(=O)(OCC)C(NC(=O)c1cccs1)C(F)(F)F (stereo unspecified),0.2,-3%,-1,-2,0.5,0.6,12,10,-1.0,1
O=C1Nc2ccc(F)cc2C12Nc1ccccc1-c1nnc(SCc3ccccc3)nc1O2 (stereo unspecified),3.6,6%,-13,11,-0.3,5.0,-17*,-4.3*,3.1*,2
Cc1oc2c(C)c3oc(=O)c4c(c3cc2c1C)CCC4,3.6,?,/,7,/,/,/,/,/,17
COCc1cc(C)nc(OCC(=O)N/N=C/c2ccc(O)cc2O)c1C#N,0.0,3%,-4,14,0.5,-3.1,3,8,0.4,-36
Cc1ccccc1C(=O)NNC(=O)C1CCN(c2ncccn2)CC1,1.4,/,-3,4,-0.1,1.7,9,15,1.9,11
Cc1cccc(NC(=O)C2C3C=CC4(O3)C2C(=O)N(CCCN2CCCC2)C4C(=O)NC2CCCC(C)C2C)c1 (stereo unspecified),1.8,/,5,3,1.5,4.6,-3,1,0.3,7
CCCCCCSc1nsc(N)n1,0.5,1%,-4,7,0.5,/,/,/,/,-44
Cc1nc(NS(=O)(=O)c2ccccc2C)c2c3c(sc2n1)CCC3,-0.5,20%,-7,-20,-0.2,/,/,/,/,-3
COC(=O)COc1ccc(S(=O)(=O)N2CCN(c3ccccc3)CC2)cc1,6.5,-3%,-11,-7,-0.1,-1.2,10,17,-1.0,-20
CCCN1/C(=C(/C#N)C2=NS(=O)(=O)c3ccccc32)N(C)c2ccccc21,-0.5,-2%,-2,0,0.2,-50,3,1,-0.4,-14
CN(C)c1cccc(C(=O)NNC(=S)NC2CC3CCC2C3)c1 (stereo unspecified),0.2,3%,-3,-14,0.0,6.9,-24*,-19*,-1.8*,1
Cc1ccc(-c2ccccc2NC(=O)CS(=O)CC(=O)Nc2ccc(C)c(Cl)c2)o1 (stereo unspecified),-4.5,?,-13,0,-0.4,-0.9,26,-25,46,0
Cc1ccc2c(c1)c(C)c(C)n2CC(O)Cn1nc(C)c(Br)c1C (stereo unspecified),-14,5%,-10,22,-0.2,/,/,/,/,0
O=C(c1ccc(-c2ccc(Cl)cc2)o1)N1CCN(S(=O)(=O)c2cccs2)CC1,/,-10%,3,/,-2.2,3.7,-7,-10,4.8,/
Fc1ccc(/C=N/n2c(-c3cccs3)n[nH]c2=S)cc1,2.3,2%,-7,-8,1.5,/,/,/,/,33
CCOC(=O)C1NN=C(C(=O)c2ccccc2)C1c1ccc(Cl)cc1 (stereo unspecified),-1.1,/,-20,-2,0.8,6.7,/,/,/,0
O=C(CNC(=O)C(c1ccccc1)c1ccccc1)N/N=C\c1cccc(O)c1,-0.6,/,-2,-2,0.3,-14,-7,-4,6.2,-2
CS(=O)(=O)N(CC(=O)N1CCCCC1)c1ccc(Cl)c(C(F)(F)F)c1,-0.1,2%,/,-8,0.2,/,/,/,/,?
CCc1ccc(NC(=O)NC(C)c2ccc3c(c2)OCO3)cc1 (stereo unspecified),-2.2,/,-6,0,0.8,-12,-5,-3,2.1,-15
O=C1c2ccccc2S(=O)(=O)c2cc(C(=O)N3CCN(c4c(Cl)cncc4Cl)CC3)ccc21,2.5,/,11,50,0.5,6.6,-5,-14,1.7,32
COc1cccc2cc(C(=O)NCc3ccc(C)cc3)c(=N)oc12,0.8,/,-4,-7,-0.1,0.5,3,4,-2.9,-10
O=C(CCN1C(=O)CSc2ccccc21)Nc1ccc(OC(F)(F)F)cc1,/,-8%,8,/,0.2,0.9,3,4,-0.3,/
COc1ccc(NC(=O)c2ccc3c(c2)C(=O)N(CC2CCCO2)C3=O)c(OC)c1 (stereo unspecified),-1.1,/,1,-6,1.2,4.6,9,14,-0.1,0
O=S(=O)(CCN1CCN(c2ccccn2)CC1)c1ccc(Cl)cc1Cl,0.1,/,4,12,0.0,-0.3,-18,-14,-1.5,2
O=C(O)c1cc(N/N=C/c2ccc(OCc3ccccc3)cc2)ccc1Cl,-0.2,14%,-8,-12,-5.5,0.9,9,15,-1.9,-7
CCN1CCCC1CNC(=O)c1cc([N+](=O)[O-])c(N(C)C)cc1OC (stereo unspecified),-0.1,/,-4,1,1.6,1.9,5,14,-0.1,-4
Cc1ccc(C)c(N2CCN(S(=O)(=O)c3c(C(=O)N4CCCCC4)c(C)n(C)c3C)CC2)c1,2.6,/,-4,15,-0.2,13,3,-5,5.8,37
COc1ccc(OC)c(C2NC(=O)N(C)C(C)=C2C(=O)OCc2ccccc2)c1 (stereo unspecified),1.9,2%,/,4,-0.3,2.5,-9,4,-1.6,-5
CCN(C[C@H]1N[C@@](CC)(C(=O)OC)[C@H]2C(=O)N(Cc3ccccc3)C(=O)[C@@H]12)C(=O)NC(C)C,/,-1%,-3,/,-0.9,-0.1,3,7,-1.5,/
